# Source: PubChem BioAssay
# T cruzi repl = inhibitors of intracellular T. cruzi growth, primary screen, luminescence, NIH3T3 host cells. 300,000 compounds, 1.4% hits. inhibition, % (test concentration not listed). T. cruzi beta-gal in NIH3T3, 90 h;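 active = mean inhibition across valid replicates above about 55%, limit read from the data; inconclusive = mean below that limit but half or more replicates reach it; inactive = mean below it, under half of replicates reach it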;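 note: signal also drops with host cell toxicity which is not excluded here; 0% = plate median of DMSO wells and 100% = zero luminescence signal; higher percent means less beta-gal luminescence so fewer parasites; stock transfer was 50 nL into about 50 µL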
# FGF22 binding = binders of human FGF22 protein, primary screen, FGF22 synaptogenesis inhibitor project, biophysical, thermal shift, single point; recombinant FGF22 thermal shift, SYPRO orange fluorescence; percent of sucrose octasulfate shift, DMSO zero; calls only at 9.99 µM; 340,000 compounds, 1.5% hits;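 active = melting point raised past a set limit in the mean and every replicate; inconclusive = no clear call; three in four hits are not shown here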
# Target sequence (Q9HCT0 whole entry, looked up): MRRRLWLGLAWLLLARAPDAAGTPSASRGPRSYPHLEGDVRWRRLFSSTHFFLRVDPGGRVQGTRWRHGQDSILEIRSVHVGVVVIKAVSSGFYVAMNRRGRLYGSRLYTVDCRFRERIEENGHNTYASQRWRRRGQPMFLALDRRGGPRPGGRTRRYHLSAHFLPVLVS
# Ecoli growth = E. coli growth inhibition, primary screen, OD600. Escherichia coli growth, 23 h; stronger effect = lower value. OD600 absorbance (test concentration not listed). 330,000 compounds, 0.21% hits;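 active = OD600 absorbance below the run mean of sample wells minus 3.6 SD, in any replicate, cut at about 0.56 in these data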;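 note: stock transfer was 300 nL into about 60 µL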
# Bfl-1 A1 inh = caspase 3/7 activation in MEF A1-2A-BIM cells, primary screen, A1 inhibitor project, cell-based, luminescence, HTS; caspase activation, % (test concentration not listed); Caspase-Glo 3/7 luminescence, 3 h; percent of clofoctol response, vehicle zero; 330,000 compounds, 0.066% hits;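 active = over half of replicate activation scores above 10%, or exactly half above 10 with the replicate mean above 10; inconclusive = replicate mean below 10 yet half the replicates above 10; inactive = over half of replicates below 10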;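 note: wells of about 30 µL received 50 nL stock; many hits fall short of the cut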
# UCH37 DUB inh = inhibitors of human UCH37 deubiquitinase, primary screen, biochemical, Ub-AMC cleavage, fluorescence. 330,000 compounds, 0.33% hits. AID 588478, 2011. Ubiquitin carboxyl-terminal hydrolase isozyme L5 (Homo sapiens), Q9Y5K5. inhibition, % (no concentration beside the values). purified proteasome/UCH37;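 active = mean of two replicates above 20%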;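 note: 0% = compound-free wells with enzyme and 100% = wells lacking proteasome; stock transfer was 100 nL into about 20 µL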
# Target sequence (Q9Y5K5 whole entry, looked up): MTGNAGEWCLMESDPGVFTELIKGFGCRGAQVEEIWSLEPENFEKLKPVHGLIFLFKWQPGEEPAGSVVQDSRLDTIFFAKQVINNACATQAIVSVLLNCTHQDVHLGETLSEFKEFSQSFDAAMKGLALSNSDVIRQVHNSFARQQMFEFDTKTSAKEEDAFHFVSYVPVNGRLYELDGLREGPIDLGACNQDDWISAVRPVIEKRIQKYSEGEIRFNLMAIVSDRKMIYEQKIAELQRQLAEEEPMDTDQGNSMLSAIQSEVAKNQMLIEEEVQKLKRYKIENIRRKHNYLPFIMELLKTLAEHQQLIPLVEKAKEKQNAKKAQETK
#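 assay system = human UCH37 enzyme supplied as purified proteasome complex | amount = proteasome at 0.15 nM in the dispensed enzyme solution | schedule = 30 min compound-proteasome preincubation then 25 min substrate reaction, room temperature | measured by = fluorescence, ex 355 nm, em 460 nm | benchmarks = no-proteasome wells (full inhibition) and compound-free wells (no inhibition)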
# rRNA inh HTS = reduced GFP signal of wild-type E. coli, primary screen, bacterial rRNA inhibitor project, GFP/RFP fluorescence, OD600, single point. GFP signal change (wild-type ribosome), % (no concentration beside the values). 350,000 compounds, 1.6% hits. E. coli WT GFP vs humanized-ribosome RFP mutants, 24 h; stronger effect = lower value; DMSO median 0, no signal -100;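 active = significant combined selectivity score with lowered wild-type GFP, culture density cut under 30%, mutant RFP and density less affected; inactive = any of these conditions unmet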; note: one replicate is shown; some compounds called inactive have numbers as strong as hits
# Beta apoptosis = inhibitors of cytokine-induced beta cell apoptosis, primary screen, luminescence; protection from apoptosis, % (concentration not given with the values); INS-1E cytokine-induced death, ATP luminescence, 48 h; percent of positive-control rescue, neutral wells zero; 300,000 compounds, 0.8% hits;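 active = all replicates at 75% or more, or half of them and the mean; inconclusive = half reach 75% but not the mean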;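 note: 0% = cytokine-treated negative control wells and 100% = positive control rescue; higher means more ATP so stronger rescue from cytokine killing; wells of about 40 µL received 100 nL stock; the first replicate is given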
# AF4-AF9 inh = inhibitors of AF4 peptide binding to AF9, primary screen, biochemical, AlphaScreen, biotin-AF4 peptide, FLAG-AF9, single point; inhibition, % at 10 µM; 350,000 compounds, 0.47% hits;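 active = every replicate reaching a set inhibition limit, whatever the replicate mean, cut at about 25% in these data; inconclusive = mean inhibition reaches that limit but some replicates miss it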;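 note: 0% = plate neutral control median and 100% = total signal loss; the record names both 10 and 1 µM as test concentration; the first replicate is given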
# Target sequence (P42568 whole entry, looked up): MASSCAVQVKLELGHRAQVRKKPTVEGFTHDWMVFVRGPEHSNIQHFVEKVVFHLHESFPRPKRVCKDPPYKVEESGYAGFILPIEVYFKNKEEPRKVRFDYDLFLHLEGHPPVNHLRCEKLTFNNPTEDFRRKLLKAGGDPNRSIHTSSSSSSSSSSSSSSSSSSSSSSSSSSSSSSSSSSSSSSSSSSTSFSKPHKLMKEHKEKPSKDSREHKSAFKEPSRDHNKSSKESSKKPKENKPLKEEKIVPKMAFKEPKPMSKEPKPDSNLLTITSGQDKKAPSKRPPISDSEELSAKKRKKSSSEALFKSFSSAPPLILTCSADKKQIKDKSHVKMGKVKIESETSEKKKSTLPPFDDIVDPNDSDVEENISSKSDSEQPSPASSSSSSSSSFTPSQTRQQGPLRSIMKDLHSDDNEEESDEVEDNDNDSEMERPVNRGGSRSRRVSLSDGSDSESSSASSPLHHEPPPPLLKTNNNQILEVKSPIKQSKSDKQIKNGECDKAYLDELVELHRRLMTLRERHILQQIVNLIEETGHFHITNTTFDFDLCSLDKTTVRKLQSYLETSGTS
# rRNA inh HTS OD600 = recorded beside rRNA inh HTS, whose call it bears; OD600 change, %; measured here: OD600 growth;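 optical density of the mix in the first replicate; 0 = DMSO median and -100 = no signal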
# rRNA inh HTS RFP = further read-out of rRNA inh HTS, marked with its call; RFP signal change, %; measured here: RFP humanized mutant strains;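 first replicate; 0 = DMSO median and -100 = no signal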
# * marks the source's active call; other numbers are inactive results; i = inactive; ? = inconclusive; . = not tested or not shown. An excerpt. The share of hits here may be higher or lower than overall.
item	smiles	T cruzi repl	FGF22 binding	Ecoli growth	Bfl-1 A1 inh	UCH37 DUB inh	rRNA inh HTS	rRNA inh HTS OD600	rRNA inh HTS RFP	Beta apoptosis	AF4-AF9 inh
1	O=C1CN(C(=O)CNCc2ccccc2Cl)c2ccccc2N1	0	i	0.69	-0.5	0.9	0	3	-2.9	-5	-9.4
2	CCc1ccc(CNC(=O)C2CCN(S(=O)(=O)N3CCC(C)CC3)CC2)cc1	-9	i	0.74	2.9	4.0	-1	12	-0.8	-1	-0.9
3	NC(=O)c1nsc(C(=O)N(CC(=O)NC2CCCCC2)c2ccc(Cl)cc2)c1N	15	i	0.67	0.3	-17	2	4	-0.5	-9	3.3
4	CCn1c(CCNC(=O)c2ccc(OC)cc2)nnc1SCc1ccc(Cl)c(Cl)c1	17	.	0.64	-0.9	1.4	.	.	.	-8	.
5	Cc1sc2nc(SCC(=O)N3CCOCC3)[nH]c(=O)c2c1-c1ccccc1	5	i	0.69	0.0	1.8	-21	-31	-4.3	.	-4.0
6	COC(=O)c1ccc(NC(=O)COC(=O)COc2cccc3c2OC(C)(C)C3)cc1	.	i	0.6	-0.4	0.7	2	4	-2.2	0	3.1
7	CC(C)CCC(CCNCc1ccccn1)c1ccc(Cl)cc1 (centres undefined)	1	i	.	0.3	.	-68	-82	-19	31	7.4
8	COc1ccc(CCNC(=O)CCCc2ccccc2)cc1	-10	i	0.69	0.5	-0.7	1	10	-0.6	-8	-18
9	COc1ccc(Cl)cc1NC(=O)COC(=O)c1c(-c2ccccc2)noc1C	.	i	.	0.5	.	3	1	-1.9	8	1.2
10	C=C(C)Cn1c(-c2ccccc2)nc2ccccc21	-6	.	0.65	0.3	1.8	.	.	.	-6	.
11	N#Cc1ccc(NC(=O)c2cc(S(=O)(=O)N3CCOCC3)ccc2N2CCCC2)cc1	0	i	0.73	-0.1	6.9	5	0	-1.4	3	-0.4
12	COc1ccc(NC(=O)Cn2nnc3ccccc32)c([N+](=O)[O-])c1	-13	i	0.69	2.9	1.8	8	5	-2.3	1	-1.3
13	COCCSc1nc2sc3c(c2c(=O)n1-c1ccccc1)CCN(C)C3	52	.	0.76	0.3	-30	.	.	.	3	.
14	Cc1ccc(CN2C(=O)CSC2c2cccnc2)cc1 (centres undefined)	-9	i	0.69	0.7	2.1	-8	-3	0.6	.	1.8
15	Cc1ccc(C)c(Nc2nc(-c3ccncc3)nc3ccccc23)c1	51	i	0.71	0.5	-94	-16	-25	-13	7	-2.0
16	CCCN(C(=O)c1ccc(N2CCCC2=O)cc1)C1CCS(=O)(=O)C1 (centres undefined)	.	i	0.7	-0.9	1.6	9	14	0.0	2	-7.8
17	CCOc1cc(S(=O)(=O)Nc2ccccc2CC)ccc1Cl	18	.	0.71	-0.3	-0.6	.	.	.	-4	.
18	COc1cccc(N2CCN(C(=O)CCNS(=O)(=O)c3ccc4c(c3)c(=O)n(C)c(=O)n4C)CC2)c1	-3	i	0.67	-0.9	4.2	1	-2	1.0	6	0.8
19	CC(=O)N1N=C(c2ccccc2OC(=O)/C=C/c2ccccc2)CC1c1ccccc1 (centres undefined)	-23	i	0.66	0.0	3.0	.	.	.	-3	8.3
20	CCC1CCCCN1C(=O)c1cc(-c2ccc(Cl)c(Cl)c2)on1 (centres undefined)	35	.	0.65	-0.5	2.0	-14	-37	0.6	8	.
21	CN(Cc1cccc(C(F)(F)F)c1)Cc1nc(-c2cnccn2)no1	-1	i	0.63	0.0	2.2	8	-11	-7.5	-5	-3.8
22	CC(C)=C1Cc2ccccc2C1=O	-14	i	0.67	0.2	-0.5	11	13	0.3	-3	-8.2
23	O=C(NCc1ccc(Cl)cc1)c1cccc2c1C(=O)N(CC1CCCO1)C2 (centres undefined)	16	i	0.66	.	2.1	-33	-64	3.4	-4	-10
24	CCOc1ccc(NS(=O)(=O)c2ccc(N)cc2)cc1	-1	.	0.67	0.6	0.3	.	.	.	-4	.
25	O=C1C=CC(=O)N1c1ccc2ccccc2c1	.	i	0.63	.	1.4	-5	-6	4.2	.	0.7
26	CCCn1c(N)c(C(=O)CSc2ncn[nH]2)c(=O)n(C)c1=O	.	i	0.64	0.4	0.2	-1	-2	0.2	-1	-1.7
27	Cc1cnc(NC(=O)c2ccc(-c3ccc([N+](=O)[O-])cc3)o2)s1	.	i	0.7	0.1	2.5	-3	4	-0.3	6	2.5
28	NC(=O)Nc1ccc(Nc2ccccc2)cc1	0	i	0.68	0.1	3.4	9	0	13	20	-6.8
29	COc1ccc(Cc2nnc(NC(=O)c3ccco3)s2)cc1OC	0	.	0.7	0.4	4.6	.	.	.	-2	.
30	CCOc1ccccc1N(CC(=O)NC1CCCC1)S(=O)(=O)c1ccc(C)cc1	12	i	0.66	0.0	3.6	-15	-48	-3.9	10	0.9
31	CCNC(=O)C12CCC(C)(C(=O)C1Br)C2(C)C (centres undefined)	2	i	0.69	-1.9	1.2	9	7	4.8	1	0.6
32	COc1ccnc(Oc2ccccc2)c1-c1ncn[nH]1	-7	i	0.73	0.7	0.4	22	29	6.6	4	0.5
33	Cc1cc(NC(=O)c2ccc(S(=O)(=O)N(C)CC3CCCO3)cc2)no1 (centres undefined)	-4	i	0.69	-0.8	2.8	15	14	0.4	-2	-2.0
34	COC(=O)c1cc(-c2ccc(S(=O)(=O)N3CCCCC3)cc2)c(C(F)(F)F)s1	19	i	0.73	-0.1	2.2	-3	1	3.8	-2	.
35	Cc1nc(NC(=O)CN2CCN(c3cccc(Cl)c3)CC2)sc1C(=O)N(C)C	-18	i	0.62	?	0.9	7	6	1.8	1	4.6
36	Cc1sc2ncnc(SCC(=O)N3CCOCC3)c2c1C	.	i	0.67	0.2	-0.1	3	9	-1.0	-15	-0.9
37	COCCNC(=S)N1CCC(C(=O)c2ccc3c(c2)OCCO3)CC1	5	i	0.65	0.5	-1.5	4	4	-1.0	-1	-2.3
38	Cc1nnc(SCC(=O)Nc2cccc(C(F)(F)F)c2)[nH]c1=O	-3	.	0.74	0.4	1.1	.	.	.	-8	.
39	COc1ccc(Br)cc1C1NC(=O)NC(C)=C1C(=O)N(C)C (centres undefined)	-8	.	0.69	0.7	3.4	.	.	.	4	.
40	CN1CCN(c2ccc(NC(=O)c3ccc(Cl)cc3Cl)cc2)CC1	-7	i	0.61	1.2	3.4	0	0	-2.5	9	0.9
41	CCOc1ccc(C2/C(=C(/O)c3ccc4c(c3)CC(C)O4)C(=O)C(=O)N2CC2CCCO2)cc1 (centres undefined)	-8	i	0.7	-0.1	10	24	17	3.2	-1	0.9
42	COC(=O)C1=C(C)N2C(=O)CSC2=NC1c1ccc2c(c1)OCO2 (centres undefined)	-5	.	.	0.1	3.4	.	.	.	-2	.
43	O=C(Nc1ccccc1NC(=O)c1c(F)cccc1F)c1c(F)cccc1F	1	i	0.63	-0.1	0.2	-2	-21	-3.7	0	1.2
44	Fc1ccccc1-c1ccc(/C=N/Nc2nc3ccccc3[nH]2)o1	29	i	.	-1.0	.	3	-14	5.6	18	7.8
45	N#C/C(=C/c1ccc([N+](=O)[O-])cc1)C(=O)Nc1ccccc1O	7	i	.	-0.5	.	3	-2	16	2	8.1
46	Cc1ccc(NC(=O)Cn2c([N+](=O)[O-])cnc2C)cc1	-9	i	0.71	-0.1	3.9	9	-2	-1.1	-3	-0.4
47	Nc1nc(-c2ccc(Cl)cc2)c(S(=O)(=O)c2ccccc2)s1	10	i	0.68	0.6	1.8	-18	-24	0.5	-6	0.1
48	COc1cc(C)nc(Oc2ccc(OCc3ccccc3)nn2)n1	-4	.	0.71	0.3	1.4	.	.	.	-4	.
49	O=C(NCCN1CCOCC1)c1c(O)nc2ccccn2c1=O	-16	i	0.71	-1.1	-14	5	16	0.3	-8	-1.2
50	COc1ccc(S(=O)(=O)N2CCN(C(=O)c3cc(-c4ccc(Br)cc4)n[nH]3)CC2)cc1OC	25	i	0.68	0.7	-0.3	-6	-9	7.3	.	3.6
51	COC(=O)C1=C(C)NC(C)=C(C(=O)OC)C1/C=C/c1ccccc1	-5	i	0.68	0.3	-23	-32*	-11*	3.1*	-9	-35
52	Cc1nc(-c2cc(C#N)c(Sc3ccc(Cl)cc3Cl)nc2C)cs1	6	i	0.65	-0.7	2.5	-4	12	-2.1	-1	-4.4
53	NC(=O)C1CCN(C(=O)c2cccc(S(=O)(=O)N3CCCC3)c2)CC1	.	i	0.66	.	3.8	8	8	0.0	.	-1.2
54	COc1ccc(CCNC(=O)COc2ccc(S(=O)(=O)NC(C)C)cc2Cl)cc1OC	2	i	0.75	0.2	0.9	-19	-13	-3.2	-1	-9.1
55	Cc1ccc2[nH]c(=O)c(COC(=O)C3CCCO3)cc2c1 (centres undefined)	-3	.	0.76	0.3	-8.0	.	.	.	-4	.
56	CCN(CC)C(=O)CSc1nnc(-c2cc(OC)cc(OC)c2)o1	-19	.	0.66	-0.1	1.0	.	.	.	1	.

# Later entries:
item	smiles	T cruzi repl	FGF22 binding	Ecoli growth	Bfl-1 A1 inh	UCH37 DUB inh	rRNA inh HTS	rRNA inh HTS OD600	rRNA inh HTS RFP	Beta apoptosis	AF4-AF9 inh
57	CC(=O)CC1(O)C(=O)N(CN2CCN(c3ccccc3)CC2)c2ccccc21 (centres undefined)	-10	.	0.7	-0.1	1.5	.	.	.	.	.
58	O=C1c2ccccc2C(=O)c2c1ccc1c(=O)n(-c3ccccc3)[nH]c21	12	.	0.72	-1.0	5.0	.	.	.	8	.
59	CCN(C(=O)COC(=O)/C=C/c1c(C)nn(Cc2ccc(C)cc2)c1C)C1CCS(=O)(=O)C1 (centres undefined)	6	.	0.69	-0.7	1.5	0	-1	-1.4	-1	1.1
60	COc1cccc(-c2nc(NCC3CCCO3)c3ccccc3n2)c1O (centres undefined)	22	.	0.71	-0.3	3.2	.	.	.	-5	.
61	COCCCNC(=O)/C=C1\Sc2ccccc2N(Cc2ccccc2F)C1=O	0	i	0.71	-0.9	-6.0	-3	-8	0.9	-16	-40
62	Cc1ccc(NC(=O)C(C)NS(=O)(=O)c2ccc(F)cc2)cc1C (centres undefined)	-13	i	0.69	-0.3	2.3	2	3	4.1	0	1.1

# 2 compounds picked at random from the list so far:
item	smiles	T cruzi repl	FGF22 binding	Ecoli growth	Bfl-1 A1 inh	UCH37 DUB inh	rRNA inh HTS	rRNA inh HTS OD600	rRNA inh HTS RFP	Beta apoptosis	AF4-AF9 inh
57	CC(=O)CC1(O)C(=O)N(CN2CCN(c3ccccc3)CC2)c2ccccc21 (centres undefined)	-10	.	0.7	-0.1	1.5	.	.	.	.	.
59	CCN(C(=O)COC(=O)/C=C/c1c(C)nn(Cc2ccc(C)cc2)c1C)C1CCS(=O)(=O)C1 (centres undefined)	6	.	0.69	-0.7	1.5	0	-1	-1.4	-1	1.1
